From PubChem BioAssay
CDC25B-CDK2 inh: primary biochemical HTRF screen for blockers of M-phase inducer phosphatase 2 binding to CDK2/cyclin A. 0.72% of 94,000 active. P30305+P24941. z-score (test concentration not listed). HTRF CDC25B-CDK2/CyclinA binding, anti-His/anti-Flag; stronger effect = higher value;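 further: score is relative to mean and SD of negative controls; strong numbers were not always called active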
HIV TAR-Tat: TAR RNA-Tat peptide displacers, HIV-1, primary screen, biochemical, FRET, FAM/TAMRA-labeled Tat; HIV-1 TAR RNA, Tat peptide displacement FRET; stronger effect = higher value; z-score (no concentration beside the values); 0.6% of 100,000 active; AID 1259389, 2018;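 further: score is relative to mean and SD of negative controls; some compounds called inactive have numbers as strong as hits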
An asterisk follows results filed as active; · = no result given.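 How the source made its calls: active means z-score from 3 up in half or more of its runs; inactive means the rest.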 Hits appear at their usual frequency, and some 0.87% of all compounds hit somewhere here.

no.	Molecule	CDC25B-CDK2 inh	HIV TAR-Tat
1	NCC(O)CC(=O)O (configuration not stated)	·	1.73
2	Cc1c(-c2nsc(NC(=O)c3ccco3)n2)nnn1-c1ccccc1Br	0.91	1.62
3	O=C(CSc1nccn1C1CCCC1)Nc1cccc(F)c1	·	1.07
4	Cn1c(=O)c(=O)n(C)c2cc(S(=O)(=O)N3CCc4ccccc4C3)ccc21	-3.3	-0.55
5	Cn1cc(-c2cc3n(n2)CCC(=O)N3CCCC(=O)NC2CCCc3ccccc32)c2ccccc21 (configuration not stated)	·	-0.1
6	CCCSc1nc(=O)c2c(n1C)NC(=O)CC2c1cc(Br)ccc1OC (configuration not stated)	-1.26	-0.23
7	Cc1n[nH]c(C)c1CCc1nc2c3c(C)c(C)oc3ncn2n1	·	0.78
8	COc1ccc(NC(=O)N2CCCC(O)C2)cc1 (configuration not stated)	0.54	0.74

(next part)
no.	Molecule	CDC25B-CDK2 inh	HIV TAR-Tat
9	Cc1ccccc1C1CC(c2ccc(F)cc2)Nc2nc(N)nn21 (configuration not stated)	0.7	1.13
10	Cc1ccc(/C(O)=C2\C(=O)C(=O)N(CCCN3CCOCC3)C2c2ccc(Cl)cc2)cc1 (configuration not stated)	-1.15	1.95
11	CCOC(=O)c1c(C)n(C)c2ccc(OCC(O)CN3C(=O)c4ccccc4S3(=O)=O)cc12 (configuration not stated)	0.95	·
12	CCOC(=O)c1cc(-c2csc(CS(=O)(=O)c3ccccn3)n2)on1	-2.01	·
13	CC1=C(C(=O)Nc2ccc(Cl)cc2C(=O)NC(C)C)SCCO1	·	0.46
14	COC(=O)C1=C(C)NC2=C(C(=O)CCC2)C1c1ccc(Cl)cc1 (configuration not stated)	-1.79	-0.05
15	CCN1CCN(S(=O)(=O)c2ccc3c(c2)CC(C)N3C(=O)C2CCC2)CC1 (configuration not stated)	·	0.28
16	O=c1ccc(-c2ccc(S(=O)(=O)NCCN3CCN(c4ccccc4)CC3)s2)n[nH]1	·	1.74

Later entries
no.	Molecule	CDC25B-CDK2 inh	HIV TAR-Tat
17	O=C(CSC1=NC(=O)C(c2ccccc2)C(=O)N1)Nc1nc2ccccc2s1 (configuration not stated)	0.57	1.7
18	O=C(CN1c2ccc(Br)cc2-c2ccccc2S1(=O)=O)Nc1ccc(F)c(F)c1	0.83	0.45
19	CC(C)N1C(=O)C(=O)c2ccccc21	-2.39	0.64
20	COc1ccc(C2=NN(C(=O)CCCC(=O)O)C(c3ccc(OC)cc3)C2)cc1 (configuration not stated)	-0.49	0.45
21	C=C(C)C1CC=C(C(=O)O)CC1 (configuration not stated)	1.14	·
22	CCN(CC)CCCNc1ncnc2onc(-c3ccc(C)cc3)c12	·	1.07
23	Brc1cccc(/C=C/c2nc3ccccc3[nH]2)c1	·	3.08
24	Cc1ccc(S(=O)(=O)n2nc(C)c(S(=O)(=O)N3CCCC(C)C3)c2C)cc1C (configuration not stated)	·	0.55

The results go on:
no.	Molecule	CDC25B-CDK2 inh	HIV TAR-Tat
25	Fc1ccccc1-c1noc(NCc2ccc3c(c2)OCO3)n1	·	-0.13
26	CCc1c(C#N)c(SCC(=O)NCc2ccc3c(c2)OCO3)nc2c1C(=O)CC(C)(C)C2	-0.99	-1.02
27	Cc1cc(C)c(C#N)c(SC(C(=O)NC(C)(C)C)c2ccccc2)n1 (configuration not stated)	-1.02	·
28	COc1cc(NC(=O)c2cc3ccccc3o2)c(OC)cc1Cl	-0.66	0.61
29	O=C(Nc1ncc2c(n1)CC(c1ccccc1)CC2=O)c1ccc(-c2ccccc2)cc1 (configuration not stated)	-0.53	-0.5
30	COCCNC(=O)CS(=O)Cc1nc(-c2cccs2)oc1C (configuration not stated)	0.28	-0.34
31	Cn1c2c(c(SCc3ccc(F)cc3)nc1=O)CCC2	-0.94	-0.36
32	O=C1CCc2cc(S(=O)(=O)NC(C(=O)Nc3ccccn3)c3ccccc3)ccc2N1 (configuration not stated)	0.02	·

The results go on.
no.	Molecule	CDC25B-CDK2 inh	HIV TAR-Tat
33	CCCCS(=O)(=O)N1CCC(Oc2ccc(-n3cnnn3)cc2)CC1	-0.89	2.04
34	COC(=O)c1ccc(CN2CC(=O)N3CCCCC3C2=O)cc1 (configuration not stated)	1.11	0.47
35	CC(C)OC(=O)C1C(=O)CC(C)(O)C(C(=O)OC(C)C)C1c1ccc(C(C)C)cc1 (configuration not stated)	-1.1	4.74
36	CCC(C)NS(=O)(=O)c1ccc2c(c1)CC(=O)N2 (configuration not stated)	0.91	1.42
37	COc1ccc2[nH]c3c(=O)n(CCCCC(=O)NCC4CCCO4)c(=S)[nH]c3c2c1 (configuration not stated)	-1.68	·
38	CCOC(=O)Cn1c(=O)oc2cc(S(=O)(=O)NC(C)CC)ccc21 (configuration not stated)	-1.25	·
39	CCN(C(=O)Cn1ncc2c(=O)oc3ccc(C)cc3c21)c1cc(C)ccc1C	-2.06	-0.73
40	Oc1ccc2cc(Br)ccc2c1/C=N\Nc1nc(-c2ccccc2)cc(-c2ccccc2)n1	-1.05	·

New compounds follow
no.	Molecule	CDC25B-CDK2 inh	HIV TAR-Tat
41	COC(=O)c1sc(=S)n(-c2ccc3c(c2)OCO3)c1N	-3.11	0.83
42	C=CCOc1cccc(C2c3c(-c4ccccc4O)n[nH]c3C(=O)N2Cc2ccncc2)c1 (configuration not stated)	0.37	0.33
43	COC(=O)c1ccc(C(=O)OC)c(NC(=O)c2cnn3c(C(F)F)cc(-c4ccccc4)nc23)c1	-0.16	·
44	CCCN1CCN(CCNC(=O)Nc2ccc3c(c2)OCCO3)CC1	-2.69	2.58
45	COc1ccc(-c2noc(CSc3nnc(-c4ccncc4)n3-c3ccccc3)n2)cc1OC	0.29	2.02
46	CC(C)CCNS(=O)(=O)c1ccc2c(c1)CC(C)N2C(=O)C1CCC1 (configuration not stated)	·	0.07
47	CC1=C(c2ccc(C)c(C)c2)S(=O)(=O)N=C1N1CCN(Cc2ccc3c(c2)OCO3)CC1	-3.1	-0.33
48	CCOc1ccc(CNc2nn3nnnc3c3ccccc23)cc1OC	-6.49	-1.96

(more compounds)
no.	Molecule	CDC25B-CDK2 inh	HIV TAR-Tat
49	CCn1c(C(=O)N2CCC(C(=O)N3CCCC3)CC2)cc2sccc21	0.05	·
50	CC(C)CC(=O)Nc1ccc2c(c1)sc(=O)n2C	·	0.28
51	CCOC(=O)c1cc(S(=O)(=O)N2CCCC2C(=O)Nc2nccs2)cn1C (configuration not stated)	·	-1.14
52	COc1ccc(Br)cc1C1CC(=O)N2CN(c3ccccc3F)CSC2=C1C#N (configuration not stated)	0.3	0.18
53	CN1CCc2c(sc(-n3cccc3)c2CNC(=O)NCCc2ccccc2)C1	2.49	-5.93
54	C=CCSc1nnc(NC(=O)Cc2coc3cc(C)cc(C)c23)s1	-1.98	0.1
55	O=S(=O)(Nc1cccc(-c2ccc(N3CCCCC3)nn2)c1)c1ccc(F)cc1F	·	2.33
56	C(=N\Nc1c2c(nc3ncnn13)CCC2)/c1cccs1	-3.6	·

(continued)
no.	Molecule	CDC25B-CDK2 inh	HIV TAR-Tat
57	CCOc1cc(CC2C(=O)Nc3ccccc32)cc(Br)c1OCC (configuration not stated)	1.59	1.55
58	Cc1ccc(C(=O)CC2(O)C(=O)N(CCc3ccccc3)c3ccccc32)c(C)c1 (configuration not stated)	0.36	·
59	O=C1CCCc2cc(S(=O)(=O)N3CCC(C(=O)N4CCCC4)CC3)ccc2N1	·	-0.27
60	CCOC(=O)c1cc(CC)sc1NC1=NS(=O)(=O)c2ccccc21	-2.56	-1.41
61	CCC(CO)Nc1ncnc2c1cnn2-c1cccc(C)c1 (configuration not stated)	1.28	·
62	C=CCOc1c(Cl)cc(C2C(C(=O)OC)=C(C)NC3=C2C(=O)c2ccccc23)cc1OC (configuration not stated)	0.81	-0.08
63	COc1ccc(C2C3=C(CCCC3=O)Nc3nc(SCc4cccc(Cl)c4)nn32)cc1OC (configuration not stated)	-0.89	1.8
64	O=C(c1cc(-c2ccccc2)c(N2CCOCC2)s1)N1CCN(Cc2ccc3c(c2)OCO3)CC1	·	2.79

Further records
no.	Molecule	CDC25B-CDK2 inh	HIV TAR-Tat
65	CC(CCc1ccco1)NC(=O)Cn1ncc2ccccc21 (configuration not stated)	1.7	-0.21
66	CCCCNc1sc(S(=O)(=O)CCC)nc1S(=O)(=O)c1ccc(C)cc1	0.26	0.23
67	COc1ccc(-c2cc(=O)c3ccc4ccccc4c3o2)cc1OC	-1.56	·
68	c1ccc2c(NC3C4CC5CC(C4)CC3C5)nc(N3CCCC3)nc2c1 (configuration not stated)	0.92	·
69	Cc1cc2c(=O)n(CC(=O)NCC(=O)N3CCC(C(N)=O)CC3)cnc2s1	·	-0.16
70	C[n+]1cccc(-c2n[nH]c(-c3ccccc3)n2)c1	-0.23	·
71	CS(=O)(=O)Nc1nc2ccc(NC(=O)NCc3ccc(F)cc3)cc2s1	·	1.41
72	CC1CCN(S(=O)(=O)c2ccc3c(c2)OCC(C(=O)N2CCCCC2)O3)CC1 (configuration not stated)	·	-0.16

Following part:
no.	Molecule	CDC25B-CDK2 inh	HIV TAR-Tat
73	O=S(=O)(Nc1cccc(-c2cn3ccsc3n2)c1)c1ccc2c(c1)OCCO2	·	1.25
74	O=C(CCn1c(=O)c2sccc2n(Cc2ccccc2)c1=O)NCc1ccccc1	0.86	·
75	CCCN1CNC(=S)N(c2ccccc2)C1	-1.95	·
76	Cc1ccc(-n2ncc3c(N4CCc5ccccc54)ncnc32)c(C)c1	·	2.31
77	CCc1oc(C(=O)O)cc1CN(CC)CC	-0.68	0.23
78	CC(C)N(C(=O)CN(C#N)c1nc(N(C)C)nc(N(C)C)n1)c1ccccc1	-0.39	0.88
79	CCN(c1ccc(F)cc1)S(=O)(=O)c1ccc2[nH]cc(C(=O)NCC3CCCO3)c(=O)c2c1 (configuration not stated)	0.4	·
80	O=C1N(Cc2cc(=O)n3ccccc3n2)c2ccccc2S(=O)(=O)N1c1cc(F)ccc1F	·	1.3

Of the compounds above, four have a cyano group.
no.	Molecule	CDC25B-CDK2 inh	HIV TAR-Tat
26	CCc1c(C#N)c(SCC(=O)NCc2ccc3c(c2)OCO3)nc2c1C(=O)CC(C)(C)C2	-0.99	-1.02
27	Cc1cc(C)c(C#N)c(SC(C(=O)NC(C)(C)C)c2ccccc2)n1 (configuration not stated)	-1.02	·
52	COc1ccc(Br)cc1C1CC(=O)N2CN(c3ccccc3F)CSC2=C1C#N (configuration not stated)	0.3	0.18
78	CC(C)N(C(=O)CN(C#N)c1nc(N(C)C)nc(N(C)C)n1)c1ccccc1	-0.39	0.88

Complete entries, quoted from the list. Order of screens: CDC25B-CDK2 inh, HIV TAR-Tat
Results for Cc1ccccc1C1CC(c2ccc(F)cc2)Nc2nc(N)nn21 (configuration not stated) = 0.7, 1.13
Results for CC(CCc1ccco1)NC(=O)Cn1ncc2ccccc21 (configuration not stated) = 1.7, -0.21
Results for O=S(=O)(Nc1cccc(-c2ccc(N3CCCCC3)nn2)c1)c1ccc(F)cc1F = ·, 2.33

Carrying on:
no.	Molecule	CDC25B-CDK2 inh	HIV TAR-Tat
81	CC(C)CC(=O)N1c2ccccc2NC2=C(C(=O)CC(C)(C)C2)C1c1c[nH]c2ccccc12 (configuration not stated)	-0.02	·
82	CCSc1nc(-c2ccc(Cl)cc2)nc2c1Cc1c(CO)cnc(C)c1O2	·	6.2
83	C=CCn1c(=O)c(C(=O)Nc2nc(C)cc(C)n2)c(O)c2ccccc21	·	1.14
84	O=S1(=O)C[C@H](NCCc2c[nH]c3ccccc23)[C@@H](S(=O)(=O)c2ccccc2)C1	-1.52	-1.21
85	O=C(C1Sc2nnc(-c3ccccc3)n2NC1c1ccccc1)N1CCCC1 (configuration not stated)	-0.84	-0.49
86	O=S1(=O)N=C(Nc2ccc(N3CCOCC3)cc2)c2ccccc21	-1.34	1.37
87	Cc1ncc(-c2ccc(S(=O)(=O)Nc3ccc(Cl)cc3F)cc2)o1	·	0.83
88	Cc1ccc(-c2csc(NC(=O)c3c(-c4ccc(F)cc4)nc4n3CCS4(=O)=O)n2)cc1	-3.3	-0.63

New compounds follow:
no.	Molecule	CDC25B-CDK2 inh	HIV TAR-Tat
89	CC(C)CS(=O)(=O)c1oc(-c2ccc(F)cc2)nc1S(=O)(=O)c1ccc(F)cc1	-3.45	1.45
90	COc1ccc(N(C)C(=O)C(=O)Nc2ccc3nc4n(c(=O)c3c2)CCCCC4)c(OC)c1	-1.27	0.01
91	O=C1CC(c2ccccc2)Sc2ccccc2N1 (configuration not stated)	-1.48	·
92	COc1ccccc1CNc1c(-c2ccc3c(c2)OCCO3)nc2ncccn12	·	-0.15
93	O=c1[nH]c(-c2ccc(F)cc2)nc2c1Cc1cc(Br)ccc1O2	-0.44	0.89
94	CCOc1ccccc1-c1oc2ccc(C)cc2c(=O)c1O	-2.95	1.95
95	Fc1ccc(C(NC2CCCCC2)c2nnc(-c3ccccc3)o2)cc1 (configuration not stated)	-1.8	1.89
96	O=C(Nc1ccc(F)c(Cl)c1)c1cc(Br)ccc1O	-1.61	·

(cont.)
no.	Molecule	CDC25B-CDK2 inh	HIV TAR-Tat
97	O=C(NNc1c(Cl)cccc1Cl)NC(=O)c1csc([N+](=O)[O-])c1	-2.56	·
98	Cc1ccc(-c2n[nH]c(=O)c3c2CCCC3)cc1S(=O)(=O)N1CCCC1	-0.99	-0.34
99	COc1ccc(C(C)C)cc1S(=O)(=O)Nc1ccc(Cl)cn1	-0.19	1.39
100	COC(=O)C1=C(C)Nc2nnnn2C1c1ccc(O)cc1 (configuration not stated)	-0.22	1.33
101	COC(=O)c1c(NC(=O)c2ccco2)sc2c1CCN(C(C)C)C2	·	1.05
102	CC1CCC(NC(=O)CSCc2cnn(-c3ccccc3)c2-n2cccc2)CC1 (configuration not stated)	0.33	-0.35
103	CC(=O)Nc1ccc2nc3c(=O)n(C)c(=O)n(C)c3nc2c1C	-1.55	-0.08
104	CCOC(=O)C1CCN(C(=O)Cn2nc(CC)n3cccc3c2=O)CC1	-0.49	1.86
